Rango release inh: inhibitors of RanGTP-induced Rango-importin beta complex dissociation; Potency, µM (titrated, usually from 46.1 µM), without a hit: top-dose activity change, negative = inhibition; 340,000 tested, 0.071% active; AID 540253; Biochemical FRET Rango-importin beta, RanGTP-induced dissociation; O95149+P62826; active means falling FRET ratio curve, often poorly fitted, with flat reads before Ran was added; inconclusive means other falling curves, or compound fluorescence or quenching; inactive means flat or rising ratio curve;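 further: potency means the concentration at half of the fitted maximal effect; % of control where 0% means no effect; nearly all actives have a fitted effect of over 45% in size; -100% = wells without RanGTP and RCC1; the record marks most hits as doubtful in a second field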
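Rango FRET biosensor (snurportin-1 IBB flanked by N-terminal EYFP and C-terminal CFP10) at 0.1 uM, with 0.25 uM importin beta in PBS, 1mM DTT, 0.02% Tween-20, 0.1% BSA. 0.6 uM Ran, 2mM GTP and 0.2 uM RCC1 were then added for 45 min at room temperature. Inhibition read as loss of FRET rise.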
miR-21 reporter: miR-21 reporter, rising signal; HeLa miR-21 FLuc reporter, luciferase, 48 h; Potency, µM (series often up to 38.3 µM), for the others: at the highest dose reporter change, positive = more light; 340,000 tested, under 10 active; active = well fitted rising curve with a large enough effect; inconclusive = small, poorly fitted or top-dose-only effect; inactive = no such curve, though single readings can be large or run the other way;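 further: % of control where 0% means no effect; miR-21 action dims this reporter so a rising signal means less miR-21 action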
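Compounds were titrated across several concentrations (up to approximately 40 uM) and incubated 48 hours with HeLa miR-21-FLuc reporter cells (miR-21 target sequence downstream of FLuc, endogenous miR-21). Readout was firefly luciferase luminescence after lytic detection reagent.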
Rango complex inh: prevents formation of the Rango-importin beta complex; 340,000 tested, 0.031% active; Q14974; Rango CFP/YFP FRET sensor + importin beta, 45 min; Potency, µM (titrated, usually from 92.2 µM), without a hit: at the highest dose inhibition of complex formation; active = rising FRET ratio curve, often small or poorly fitted; inconclusive = mostly compound fluorescence or quenching in the first reads; inactive = flat curves in all reads;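 further: potency means the concentration at half of the fitted maximal effect; 0% = DMSO wells and 100% = buffer wells lacking importin beta; nearly all actives have a fitted effect of over 15% in size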
Target sequence (Q14974 whole entry, looked up): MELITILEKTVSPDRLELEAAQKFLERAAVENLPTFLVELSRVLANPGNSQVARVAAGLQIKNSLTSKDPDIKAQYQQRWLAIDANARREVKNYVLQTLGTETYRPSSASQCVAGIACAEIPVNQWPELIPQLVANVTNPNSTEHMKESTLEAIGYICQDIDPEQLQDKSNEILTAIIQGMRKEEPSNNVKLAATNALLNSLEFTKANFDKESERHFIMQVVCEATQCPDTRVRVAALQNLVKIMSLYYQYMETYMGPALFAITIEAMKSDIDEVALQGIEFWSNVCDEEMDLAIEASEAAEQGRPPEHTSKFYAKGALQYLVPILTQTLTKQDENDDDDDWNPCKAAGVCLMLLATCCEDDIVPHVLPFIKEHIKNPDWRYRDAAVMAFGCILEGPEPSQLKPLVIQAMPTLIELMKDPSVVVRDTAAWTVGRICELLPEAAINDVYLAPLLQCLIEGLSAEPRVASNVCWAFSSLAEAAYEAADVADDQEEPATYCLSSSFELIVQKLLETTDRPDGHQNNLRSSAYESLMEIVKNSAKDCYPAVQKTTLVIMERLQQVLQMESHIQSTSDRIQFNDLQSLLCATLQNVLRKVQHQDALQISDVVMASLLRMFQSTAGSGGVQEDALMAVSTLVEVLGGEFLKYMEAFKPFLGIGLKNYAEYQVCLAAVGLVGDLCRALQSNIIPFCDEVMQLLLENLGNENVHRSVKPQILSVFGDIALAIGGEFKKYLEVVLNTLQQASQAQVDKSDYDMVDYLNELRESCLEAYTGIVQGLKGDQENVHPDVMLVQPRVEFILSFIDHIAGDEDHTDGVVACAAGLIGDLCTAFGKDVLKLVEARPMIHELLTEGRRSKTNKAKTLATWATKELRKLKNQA
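Inhibition scored from the CFP 486 nm/YFP 530 nm FRET ratio 45 min after adding 0.125 microM importin beta to 50 nM Rango biosensor preincubated 5 min with compound (room temperature, PBS with DTT, Tween-20, BSA). No-importin wells as positive control.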
GLA inh pH 4.5: blocks human alpha-galactosidase A at pH 4.5. P06280. purified enzyme, 4-MU-alpha-Gal fluorescence, pH 4.5. activity change, negative = inhibition, % at 105 µM. 230,000 tested, under 10 active. AID 1467; inconclusive = small, poorly fitted or top-dose-only inhibition, or a rising curve; inactive = flat fitted curve, though single readings scatter; no compound was filed as active;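 further: 0% = full activity with enzyme and -100% = basal without enzyme; dose as in the result columns while the protocol names 77 µM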
* marks the source's active call; other numbers are inactive results.

What do the screens show for `CC(=O)c1sc2nc(CSc3nncn3C)[nH]c(=O)c2c1C`?
Rango release inh: 1%; miR-21 reporter: -1%; Rango complex inh: -2.0%; GLA inh pH 4.5: inconclusive

How did COc1cccc(NC(=O)CSc2nc3c(sc4ccccc43)c(=O)n2CCCN2CCCC2)c1 do in these assays?
Rango release inh: 4%; miR-21 reporter: -20%; Rango complex inh: 2.0%

What do the screens show for `Cc1nc(Cl)c(C(=O)NC(=O)NCc2ccccc2)c(C)c1Cl`?
Rango release inh: -6%; miR-21 reporter: -21%; Rango complex inh: -0.6%; GLA inh pH 4.5: 5

Results for CCn1c(=O)c(C(=O)NCc2ccccn2)c(O)c2ccccc21 ?
Rango release inh: 2%; miR-21 reporter: -22%; Rango complex inh: -0.1%; GLA inh pH 4.5: 3

Results for CC1=C(OC(=O)c2ccccc2)C(C)(C)C(c2ccccc2)OC1=O (stereo unspecified) ?
Rango release inh: -8%; miR-21 reporter: -4%; Rango complex inh: -1.3%; GLA inh pH 4.5: -4

Results for O=C(Nc1cccc(C(F)(F)F)c1)c1cccnc1N1CCCC1 ?
Rango release inh: -4%; miR-21 reporter: -5%; Rango complex inh: -3.7%; GLA inh pH 4.5: -11

What do the screens show for `CCN(Cc1ccccc1)C(=O)c1ccc(NC(=O)c2ccc(OC)cc2)cc1`?
Rango release inh: -2%; miR-21 reporter: 6%; Rango complex inh: 1.1%

Results for COc1cc2c(cc1OC)CN(C(=O)CSc1nnc3scc(-c4ccccc4)n13)CC2 ?
Rango release inh: 6%; miR-21 reporter: -2%; Rango complex inh: 3.4%; GLA inh pH 4.5: 4

What do the screens show for `Cc1c(NC(=O)c2ccc([N+](=O)[O-])o2)cccc1-c1nc2ncccc2o1`?
Rango release inh: 0%; miR-21 reporter: 6%; Rango complex inh: 0.2%

Results for CC(C)COc1ccc(-c2nn(-c3ccccc3)cc2C(=O)Nc2nccs2)cc1 ?
Rango release inh: 8%; miR-21 reporter: 10%; Rango complex inh: -0.6%; GLA inh pH 4.5: 1

6 records picked at random from those above:
What do the screens show for `CCN(Cc1ccccc1)C(=O)c1ccc(NC(=O)c2ccc(OC)cc2)cc1`?
Rango release inh: -2%; miR-21 reporter: 6%; Rango complex inh: 1.1%

Results for O=C(Nc1cccc(C(F)(F)F)c1)c1cccnc1N1CCCC1 ?
Rango release inh: -4%; miR-21 reporter: -5%; Rango complex inh: -3.7%; GLA inh pH 4.5: -11

What do the screens show for `CC(=O)c1sc2nc(CSc3nncn3C)[nH]c(=O)c2c1C`?
Rango release inh: 1%; miR-21 reporter: -1%; Rango complex inh: -2.0%; GLA inh pH 4.5: inconclusive

Results for COc1cc2c(cc1OC)CN(C(=O)CSc1nnc3scc(-c4ccccc4)n13)CC2 ?
Rango release inh: 6%; miR-21 reporter: -2%; Rango complex inh: 3.4%; GLA inh pH 4.5: 4

Results for CCn1c(=O)c(C(=O)NCc2ccccn2)c(O)c2ccccc21 ?
Rango release inh: 2%; miR-21 reporter: -22%; Rango complex inh: -0.1%; GLA inh pH 4.5: 3

What do the screens show for `Cc1nc(Cl)c(C(=O)NC(=O)NCc2ccccc2)c(C)c1Cl`?
Rango release inh: -6%; miR-21 reporter: -21%; Rango complex inh: -0.6%; GLA inh pH 4.5: 5

(further entries)
How did COc1cc(C(=O)N2CCC(n3c(C)nc4cc(F)ccc43)CC2)cc(OC)c1OC do in these assays?
Rango release inh: 16%; miR-21 reporter: -8%; Rango complex inh: -0.9%; GLA inh pH 4.5: 4

Results for Cc1nnc(C)n1/N=C/c1ccccn1 ?
Rango release inh: 4%; miR-21 reporter: -2%; Rango complex inh: -0.9%; GLA inh pH 4.5: 10

What do the screens show for `CCOCCn1cnc2sc(C(=O)Nc3nc(C)c(C(=O)OCC)s3)c(C)c2c1=O`?
miR-21 reporter: -8%; GLA inh pH 4.5: -5

Results for NC(=O)CC(NC(=O)Cc1cccc2ccccc12)c1ccc(NC2CCCC2)c([N+](=O)[O-])c1 (stereo unspecified) ?
Rango release inh: -13%; Rango complex inh: 1.4%

What do the screens show for `O=S(=O)(c1cccs1)N1CN(CC2CCCO2)c2nc3ccccc3nc21` (stereo unspecified)?
Rango release inh: 1%; miR-21 reporter: -17%; Rango complex inh: -4.4%; GLA inh pH 4.5: -4

What do the screens show for `COc1ccc(-n2c(COc3ccccc3)nnc2SCc2ccc(C#N)cc2)cc1`?
Rango release inh: 9%; miR-21 reporter: -1%; Rango complex inh: -1.9%; GLA inh pH 4.5: -20

How did COc1ccc2[nH]c(=O)c(CN(Cc3cccs3)S(=O)(=O)c3c(C)ccc4nsnc34)cc2c1 do in these assays?
Rango release inh: 2%; miR-21 reporter: 7%; Rango complex inh: -0.7%; GLA inh pH 4.5: -13

How did CN(C(=O)c1ccc(NC(=O)Cc2ccc(NC(=O)C3CCN(C(=O)C4CC4)CC3)cc2)cc1)C1CCCC1 do in these assays?
Rango release inh: 12%; Rango complex inh: -2.8%

Results for Nc1[nH]c(=S)[nH]c(=O)c1-c1ccccc1 ?
Rango release inh: 0%; miR-21 reporter: -2%; Rango complex inh: -0.6%; GLA inh pH 4.5: -2

Results for COc1cccc(-c2nnc(NC(=O)c3ccc(S(=O)(=O)N4CCOCC4)cc3)o2)c1 ?
Rango release inh: 6%; miR-21 reporter: 0%; Rango complex inh: 0.0%; GLA inh pH 4.5: 1

What do the screens show for `CC(C)c1ccc(OCC(=O)Nc2ccccc2C(=O)N2CCOCC2)cc1`?
Rango release inh: 5%; miR-21 reporter: 1%; Rango complex inh: 0.4%

What do the screens show for `Cc1oc(-c2ccccc2F)nc1CS(=O)(=O)CC(=O)N1CCOCC1`?
Rango release inh: 11%; miR-21 reporter: -5%; Rango complex inh: 3.8%; GLA inh pH 4.5: 5

Results for CCCCCN(C(=O)CCC(=O)OCCOc1ccc(OCC)cc1)c1c(N)n(CCCC)c(=O)[nH]c1=O ?
Rango release inh: -13%; Rango complex inh: -5.0%

What do the screens show for `Cc1ccc(C=Nc2ccc(N(C)C)cc2)o1`?
Rango release inh: -4%; miR-21 reporter: -9%; Rango complex inh: 0.3%; GLA inh pH 4.5: 7

Results for COc1cc(NC(=O)OCc2ccccc2)c2ncccc2c1 ?
Rango release inh: -11%; Rango complex inh: 3.9%

What do the screens show for `Nc1cccc(-c2nc3ncccc3o2)c1`?
Rango release inh: 0%; miR-21 reporter: -33%; Rango complex inh: -0.3%

Results for COc1ccccc1S(=O)(=O)Nc1cc(C)nn1-c1ccc(C)cc1 ?
Rango release inh: -3%; miR-21 reporter: 2%; Rango complex inh: -0.3%

What do the screens show for `Cc1ccccc1N1C(=O)N(c2cccc(C(F)(F)F)c2)C2CS(=O)(=O)CC21` (stereo unspecified)?
Rango release inh: 23%; miR-21 reporter: -2%; Rango complex inh: 2.5%; GLA inh pH 4.5: 0

Results for N/C(=N\O)c1ccc(Cl)cc1Cl ?
Rango release inh: -9%; miR-21 reporter: -4%; Rango complex inh: -5.3%; GLA inh pH 4.5: 2

Results for Cc1ccc(S(=O)(=O)N2CCC(C(=O)OCC(=O)NCc3cccc(Cl)c3)CC2)cc1C ?
Rango release inh: -10%; Rango complex inh: -0.5%

How did O=C(CCSc1ccccc1)NCCN1CCOCC1 do in these assays?
Rango release inh: -16%; miR-21 reporter: -22%; Rango complex inh: 5.8%; GLA inh pH 4.5: 1

Results for CCOc1ccc(N(CC(=O)NC(C)(C)C)S(=O)(=O)c2c(C)noc2C)cc1 ?
Rango release inh: 3%; miR-21 reporter: 5%; Rango complex inh: -3.7%; GLA inh pH 4.5: -7

Results for COC(=O)C1OC(OC2CC[C@]3(C)C(CC[C@@]4(C)[C@@H]3CC=C3[C@@H]5CC(C)(C)CC[C@]5(C(=O)OC5OC(CO)C(O)C(O)C5O)CC[C@]34C)C2(C)C)C(O)C(O)C1O[C@H]1OCC(O)C(O)C1O (stereo partly specified) ?
Rango release inh: 0%; Rango complex inh: -2.9%

Results for CCC(NC(=O)c1ccccc1Br)c1ccccc1 (stereo unspecified) ?
Rango release inh: -17%; miR-21 reporter: -2%; Rango complex inh: 2.1%; GLA inh pH 4.5: -2

What do the screens show for `Cn1c(=O)cc(Nc2ccccc2)[nH]c1=O`?
Rango release inh: 1%; miR-21 reporter: 0%; Rango complex inh: 2.3%

What do the screens show for `Cc1ccc(NC(=O)c2cc(N3C(=O)C=CC3=O)ccc2N2CCOCC2)cc1Cl`?
Rango release inh: -4%; miR-21 reporter: 29%; Rango complex inh: 0.7%; GLA inh pH 4.5: 3

Results for O=C(N/N=C\c1ccc(F)cc1)c1cc(OCC(F)(F)F)ccc1OCC(F)(F)F ?
Rango release inh: 21%; miR-21 reporter: -5%; Rango complex inh: -4.0%; GLA inh pH 4.5: 0

What do the screens show for `CCCc1cc(=O)oc2cc(OC(C)C(=O)NC3CC(C)(C)NC(C)(C)C3)ccc12` (stereo unspecified)?
Rango release inh: 15%; miR-21 reporter: 0%; Rango complex inh: -2.1%

How did CC(C)CC(NC(=O)C1CCC(C)CC1)C(=O)NCCN1CCOCC1 (stereo unspecified) do in these assays?
Rango release inh: 1%; miR-21 reporter: 5%; Rango complex inh: 4.4%

How did CCCn1c(C)cc(C(=O)COC(=O)c2ccc[nH]c2=O)c1C do in these assays?
Rango release inh: -24%; miR-21 reporter: -20%; Rango complex inh: inconclusive; GLA inh pH 4.5: 3

How did CCOC(=O)C1CCN(C(=O)CCCn2nc(C)c3c(C)n(-c4ccc(C)cc4)nc3c2=O)CC1 do in these assays?
Rango release inh: 24%; miR-21 reporter: 0%; Rango complex inh: -9.0%

What do the screens show for `CCN(CC)CCNC(=O)c1cc2cc(Br)ccc2s1`?
Rango release inh: 3%; miR-21 reporter: -27%; Rango complex inh: 2.6%; GLA inh pH 4.5: 2

What do the screens show for `CCOC(=O)C1CCN(c2cc(=O)n(-c3ccc(OC)cc3)c(=O)[nH]2)CC1`?
Rango release inh: -21%; miR-21 reporter: 0%; Rango complex inh: -0.3%; GLA inh pH 4.5: 5

What do the screens show for `CN(C)S(=O)(=O)c1cccc(C(=O)N(Cc2ccc(F)cc2)Cc2ccco2)c1`?
Rango release inh: -10%; miR-21 reporter: 1%; Rango complex inh: 0.2%; GLA inh pH 4.5: 1

How did CCOC(=O)CNC(=O)CCc1nnc2ccc(N3CCC(C)CC3)nn12 do in these assays?
Rango release inh: 11%; miR-21 reporter: -4%; Rango complex inh: 0.2%

Results for COc1ccc(C(=O)NCc2nnc(SCC(=O)N3CCOCC3)o2)cc1OC ?
Rango release inh: inconclusive; miR-21 reporter: 0%; Rango complex inh: 2.1%; GLA inh pH 4.5: -2

Results for C[C@H]1COC(=O)[C@H](CC(=O)OC(C)(C)C)C/C=C\C[C@@H](CC(=O)N(CCO)Cc2ccccc2)C(=O)N1 ?
Rango release inh: 2%; Rango complex inh: -3.9%

What do the screens show for `O=C1CC(C(=O)N2CCN(Cc3ccccc3)CC2)CN1Cc1ccccc1` (stereo unspecified)?
Rango release inh: 30%; Rango complex inh: -3.8%

Results for CC1CC(C)(C)NCc2ccccc21 (stereo unspecified) ?
Rango release inh: 2%; miR-21 reporter: -5%; Rango complex inh: -3.5%; GLA inh pH 4.5: -2

How did COc1ccc(OCc2cc(C(=O)NCCN3CCCc4ccccc43)no2)c(Cl)c1 do in these assays?
Rango release inh: -17%; miR-21 reporter: -2%; Rango complex inh: inconclusive

How did CCOC(=O)C1CCCN(C(=O)CNC(=O)c2ccc(Br)o2)C1 (stereo unspecified) do in these assays?
Rango release inh: -12%; Rango complex inh: -3.6%

How did CN(C)/N=C/C=C1\CCC/C(=C/c2cccs2)C1=O do in these assays?
Rango release inh: inconclusive; miR-21 reporter: -57%; Rango complex inh: inconclusive; GLA inh pH 4.5: -5

What do the screens show for `N/C(=N\OC(=O)/C=C/c1ccc(Br)cc1)c1ccccn1`?
Rango release inh: 0%; miR-21 reporter: -23%; Rango complex inh: -1.9%; GLA inh pH 4.5: 16

Results for Cc1cccc(N2C(=O)C3C4CC(C(Br)C4Br)C3C2=O)n1 (stereo unspecified) ?
Rango release inh: 16%; miR-21 reporter: -6%; Rango complex inh: -0.9%; GLA inh pH 4.5: 2

High-throughput results as filed in PubChem.

Some of the compounds tested; rates above refer to the full screens.
